TRPV1 potentiator: potentiators of human vanilloid receptor 1 (TRPV1). Q8NER1. TRPV1-expressing cells, Fluo-8 calcium influx, capsaicin EC20 potentiation; host cell line not named in the record; control for the full effect not named in the record. potentiation, % at 8.33 µM. hit rate 0.02% among 320,000. AID 540277; active means potentiation above 80%; inconclusive means 30% to 80%; inactive means below 30%; note: 0% is about no effect
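Fluo-8 calcium influx in TRPV1-expressing cells, kinetic read (ex 480/em 520 nm). Compound added and read 3 min for agonist activity, followed by capsaicin at EC20 final and 2 min further read for enhancement.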
Sfp inh: blocks B. subtilis Sfp PPTase activity; Q9F4F7; Biochemical Sfp PPTase activity, qHTS; Potency, µM, for inactives: max response, negative = inhibition, actives largely listed as inhibitors; hit rate 3.5% among 310,000; AID 1490; active = well fitted inhibition curve with a large enough effect; inconclusive = small, poorly fitted or top-dose-only effect, or another doubt; inactive = no such curve, though single readings can be large or run the other way;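 note: the enzyme is Sfp with the accession as filed and its product quenches rhodamine fluorescence; potency is the fitted concentration of half-maximal effect; 0% = enzyme reaction without inhibitor and -100% = no enzyme wells; top concentration of the series not given in the record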
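Reaction rates are the 30-min fluorescence difference (ex 525, em 598 nm) in wells containing 15 nM Sfp, 5 uM rhodamine-CoA and 12.5 uM BHQ-2-YbbR at pH 7.6 with 10 mM MgCl2.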
gsp agonist: agonists of gsp mutant (McCune-Albright syndrome); hit rate 0.13% among 340,000; Potency, µM (titrated, usually from 76.9 µM), without a hit: at the highest dose activation (cAMP increase), most hits filed as activators; gsp mutant cells, cAMP HTRF, 30 min; control for the full effect not named in the record; active = well fitted activation curve with a large enough effect; inconclusive = small, poorly fitted or top-dose-only effect, or another doubt; inactive = no such curve, though single readings can be large or run the other way; cell line not stated here;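 note: phosphodiesterase inhibitor Ro 20-1724 added with compounds to block cAMP breakdown; potency is the fitted concentration of half-maximal effect; nearly all actives have a fitted effect of over 60% in size; about a fifth of the inactives were tested at one dose only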
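Cells stably selected in G418 were plated at 2000/well, grown 16-24 hr, then given compounds in DMSO with the PDE inhibitor […] (300 uM solution added) for 30 min at 37C; cAMP was read by HTRF.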
gsp antag: antagonists of gsp mutant (McCune-Albright syndrome); gsp-mutant cells, cAMP HTRF, 30 min; control for the full effect not named in the record; Potency, µM (series often up to 76.9 µM), for inactives: at the highest dose activity change, negative = inhibition, usual class: inhibitors; hit rate 0.4% among 340,000; AID 624288; active = falling curve of any shape with a large fitted effect; inconclusive = falling curve, mostly with a smaller effect; inactive = flat or rising curve; cell line not stated here;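 note: intracellular cAMP measured with PDE inhibitor Ro 20-1724 present during compound exposure; potency is the fitted concentration of half-maximal effect; % is set by controls: 0 for no effect and ±100 for the full control effect; nearly all actives have a fitted effect of over 65% in size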
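HTRF cAMP read-out (cAMP-d2 plus anti-cAMP antibody-K in lysis buffer, 30 min RT). Before lysis, cells are exposed to compounds with […] for 30 min at 37C in DPBS containing Ca/Mg, BSA and Tween 20.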
Menin-MLL FL inh: displaces fluorescein MLL peptide from human menin. 290,000 tested, under 10 active. FP activity change, % at 61.4 µM. Fluorescence polarization, fluorescein-MLL peptide displacement from menin. AID 1766; inconclusive = falling polarisation curve, or a change in total fluorescence; inactive = total fluorescence flat and polarisation flat or rising; no compound was filed as active; the % refers to the polarisation; negative = inhibition;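 note: % of control where 0% means no effect; inhibitors lower the polarisation; unlabelled MLL peptide was the positive control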
D2 PAM: potentiates the human D2 dopamine receptor allosterically; AID 624464; potentiation, % (test concentration not listed); DiscoveRx D2 beta-arrestin cells, luminescence, 90 min; 100% = 57 uM dopamine signal; hit rate 0.23% among 360,000; P14416; active = potentiation of 50% or more; inconclusive = 30% to 50%; inactive = 30% or less;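 note: compound concentration not given in the record; tested on top of an EC20 dose of dopamine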
Target sequence (P14416 whole entry, looked up): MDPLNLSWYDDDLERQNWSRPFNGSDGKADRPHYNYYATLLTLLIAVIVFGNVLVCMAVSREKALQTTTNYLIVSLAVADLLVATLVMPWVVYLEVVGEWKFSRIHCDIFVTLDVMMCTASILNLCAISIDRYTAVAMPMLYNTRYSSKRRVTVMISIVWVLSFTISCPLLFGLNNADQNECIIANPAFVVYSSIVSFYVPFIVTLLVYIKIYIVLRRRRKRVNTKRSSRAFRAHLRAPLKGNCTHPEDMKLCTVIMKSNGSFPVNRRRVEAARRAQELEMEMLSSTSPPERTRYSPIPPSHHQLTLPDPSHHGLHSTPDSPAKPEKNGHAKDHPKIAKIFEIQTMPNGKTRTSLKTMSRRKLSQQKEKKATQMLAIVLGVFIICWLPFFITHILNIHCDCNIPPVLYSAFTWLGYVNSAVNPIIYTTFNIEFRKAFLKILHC
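PathHunter beta-arrestin assay in DiscoveRx D2 cells. Compounds were added with an EC20 of dopamine (50 nM final) for 90 min at 37 deg C. Luminescence was read 1 h after detection reagent, with 57 uM dopamine as the EC100 control.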
ClpP mod: qHTS Assay for Activators of ClpP; ATP-dependent Clp protease proteolytic subunit (Bacillus subtilis (strain 168)), P80244; purified B. subtilis ClpP, FRET peptide cleavage, 20 min; Potency, µM (series often up to 57.5 µM), inactives show top-dose activity change, negative = active; hit rate 1.9% among 340,000; AID 651965, 2013; active = well fitted falling curve with a large enough effect; inconclusive = small, poorly fitted or top-dose-only effect; inactive = no such curve, though single readings can be large or run the other way; note: potency is the fitted concentration of half-maximal effect; the source files actives as falling curves though it sought activators and does not explain the sign; nearly all actives have a fitted effect of over 65% in size; many hits overshoot -100%
Target sequence (P80244 whole entry, looked up): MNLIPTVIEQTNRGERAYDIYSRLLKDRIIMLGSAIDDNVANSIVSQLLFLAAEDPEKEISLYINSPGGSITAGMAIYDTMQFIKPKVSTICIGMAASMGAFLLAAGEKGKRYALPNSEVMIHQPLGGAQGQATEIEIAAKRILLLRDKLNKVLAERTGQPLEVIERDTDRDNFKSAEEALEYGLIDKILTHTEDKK
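Purified B. subtilis ClpP, 10 microg/mL final in Tris/HCl pH8 with KCl, BSA, glycerol and Tween-20, cleaved an Abz/nitrotyrosine-quenched decapeptide. Fluorescence (ex 320, em 430) was read at 0 and 20 min at room temperature. Delta was normalized to 5.8 microM ADEP and DMSO/no-enzyme controls.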
The depositor's hits bear a star; ? = inconclusive; · = not tested or not shown; & = joins results of further samples; [ ] = remark or other dose. Compounds were not picked by outcome; overall some 5.1% were active at least once.

SMILES	TRPV1 potentiator	Sfp inh	gsp agonist	gsp antag	Menin-MLL FL inh	D2 PAM	ClpP mod
CCN(CC)c1ccc(S(=O)(=O)N2CCOCC2)cc1NC(=O)COC(=O)COc1ccccc1C	-5	16%	14%[15.4 µM]	-1%	·	-4	-28%
Nn1c(SCc2cccc(F)c2)nnc1-c1ccncc1	1	-17%	-1%	9%	4.6	-4	-0.7%
COC(=O)[C@H](CCSC)NC(=O)NCc1ccccc1F	-9	11%	-30%[inhibitor]	-2%	-2.3	6	1.1%
O=C(Nc1nc2ccccc2[nH]1)C1CCN(S(=O)(=O)c2cccs2)CC1	9	18%	-16%	3%	-2.7	8	3.2%
O/N=C/c1cccc[n+]1CCCCCC[n+]1ccccc1/C=N/O	-6	-26%	17%[15.4 µM]	-6%	-0.4	-15	0.5%
CCc1cccc(NC(=O)Cn2c(=O)c3cccn3c3ccccc32)c1	-11	23%	25%	-21%	·	-6	-21%
COc1cc2c(cc1NC(=O)CCCN1C(=O)CCC1=O)oc1ccccc12	3	-5%	-26%	-6%	4.7	29	0.5%
CCC(C)NC(=O)CC(NS(=O)(=O)c1ccc(Cl)cc1)c1ccco1 (stereo not given)	-17	-1%	-21%	-3%	4.3	-11	0.3%
Nc1ccc(S(=O)(=O)N2CCCC2)cc1Cl	3	7%	21%	6%	-0.3	-2	-0.4%
O=C1N/C(=C/c2cccn2-c2ccc(F)cc2)C(=O)N1Cc1ccccc1F	6	-1%	-1%[15.4 µM]	0%	7.6	1	-1.2%
CC(=O)NC1(C(F)(F)F)NC(=O)N(c2ccc(F)cc2)C1=O (stereo not given)	7	10%	?	11%	2.0	-4	-1.2%
CCCC(=O)NC(c1ccc(OC)cc1)c1c(O)ccc2ccccc12 (stereo not given)	5	-5%	-18%	-9%	-2.7	-6	·
CCC1C(=O)c2ccccc2N(C)C1=O (stereo not given)	10	4%	-11%	7%	0.5	-3	4.0%
O=C(Nc1ccccc1C(=O)O)c1ccc(NC(=O)C2CCCO2)cc1 (stereo not given)	?	14%	-7%	-7%	·	-1	-3.5%
O=C(CN1C(=O)NC(CCc2ccccc2)C1=O)Nc1ccc(F)c(F)c1F (stereo not given)	·	·	-14%	11%	·	-3	0.5%
CN(C(=O)c1cc(COc2ccc(F)cc2Cl)on1)C1CCOC1 (stereo not given)	·	·	-113%[inhibitor]	·	·	-7	-1.8%
O=C(O)CS(=O)CC(=O)NCc1cccc(C(F)(F)F)c1 (stereo not given)	3	5%	6%	11%	0.0	5	·
O=C(CSc1c2c(nc3ccccc13)CCCC2)NCc1ccco1	0	-26%	?	13%	1.5	2	0.4%
NC(=O)CC(NC(=O)Cc1ccc(Cl)cc1)c1ccc(NCc2ccccc2)c([N+](=O)[O-])c1 (stereo not given)	10	23%	·	-5%	1.0	-5	1.5%
CNC(=O)COC(=O)c1ccccc1Oc1ccccc1	14	13%	-71%[inhibitor]	-9%	-1.2	-11	-2.2%
O=C(CSc1nnc(-c2cccnc2)n1Cc1ccccc1)NCc1ccccc1	-3	22%	0%	13%	1.9	-10	-0.2%
Cc1cnc(NC(=O)Cc2ccc(Br)cc2)s1	17	11%	-27%	9%	5.3	-1	·
COc1ccc(OC)c(/C=N/NC(=O)c2nnn(-c3nonc3N)c2-c2cccs2)c1	4	3%	-25%	?	1.7	-11	4.6%
OB(O)c1csc2ccccc12	·	6%	·	·	-0.4	·	-1.8%
Cc1ccccc1C(=O)c1cccn1CC(=O)NC(C)CCc1ccccc1 (stereo not given)	-5	8%	8%	-2%	3.6	-9	-0.2%
O=C(c1ccc(CS(=O)Cc2ccccc2Cl)o1)N1CCN(c2cccc(Cl)c2)CC1 (stereo not given)	28	-5%	-1%	32µM*	1.7	5	0.2%
CCOC(=O)c1ccc(N/C=C/C(=O)c2ccccc2)cc1	-17	-5%	1%	-1%	-0.8	-2	·
O=C1OC(CO)CN1Cc1ccccc1 (stereo not given)	7	8%	2%[15.4 µM]	5%	-8.0	-9	-2.7%
C=CCn1c(=O)c(C(=O)NCc2ccc(Cl)cc2)c(O)c2ccccc21	10	-7%	0%	-6%	2.7	-3	?
CC(C)(C)NCCCCOc1ccccc1F	2	13%	8%	-2%	7.8	-25	-1.6%
O=C(CN1CCSCC1)N/N=C/c1ccc(F)cc1F	-3	-20%	-5%	2%	1.1	6	0.0%
O=C(Nc1ccc(N2CCOCC2)c(Cl)c1)c1ccccc1Cl	-22	5%	-9%[15.4 µM]	·	-1.6	-10	·
COc1cc(C(=O)Nc2ccc(NC(=O)C(C)C)nc2)cc(OC)c1OC	-5	18%	5%	20%	-1.8	0	-0.4%
COCCNC(=O)C1CC(=O)N(CCc2ccccc2)C1 (stereo not given)	10	10%	6%	20%	-2.4	-13	1.0%
CSc1ccc(COC(=O)c2cc([N+](=O)[O-])ccc2N2CCOCC2)cc1	11	·	-2%	9%	·	15	-1.3%
Cc1ccc(N(Cc2cc(=O)[nH]c3ccccc23)C(=O)CCl)c(C)c1	-8	-12%	-5%[15.4 µM]	5%	14	-3	·
COc1cccc(/C=C/C(=O)c2ccc(C)c([N+](=O)[O-])c2)c1	5	-5%	-11%[15.4 µM]	8%	4.6	-9	2.5%
COc1ccc(NC(=O)CSCC(=O)N2CCN(c3cccc(C(F)(F)F)c3)CC2)cc1	-2	·	-12%	-4%	·	3	1.7%
COc1ccc(/C=C/C(=O)Oc2cccc(/C=N/NC(=O)c3cccc(F)c3)c2)cc1	-4	21%	0%	10%	0.5	-5	-11%
Cc1ccc(CN2CCCN(Cc3ccc(F)cc3Cl)S2(=O)=O)cc1	-13	1%	-13%	1%	-6.6	-3	-0.3%
CCCCn1c(N)c(N(CC(C)C)C(=O)c2c(-c3ccccc3)noc2C)c(=O)[nH]c1=O	-1	·	4%	3%	·	1	-2.2%
O=C(CN1CCN(Cc2ccccc2Cl)CC1)N/N=C/C=C/c1ccco1	8	-21%	-7%	-2%	8.1	-7	·
CC1CC(C)CN(C(=O)CN2C(=O)NC(C)(C)C2=O)C1 (stereo not given)	5	·	5%[15.4 µM]	5%	·	5	·
CCc1cc2cc(C)cc(C)c2nc1SCC(=O)N1CCN(C(=O)c2ccco2)CC1	-29	?	15%	-19%	0.5	-2	-3.5%
Cc1ccc(CN2CC(C(=O)Nc3ccncc3)CC2=O)cc1 (stereo not given)	20	11%	?	5%	·	-5	1.5%
C(=N\n1cnnc1)/c1cccc(Oc2ccccc2)c1	-4	5%	5%	12%	1.8	3	-3.5%
FC(F)(F)c1cnc2c(c1)Nc1ccccc1S2	-1	14%	-43%[inhibitor]	-4%	2.5	-19	0.6%
CCOC(=O)Cn1c(SC)nc2sc3c(c2c1=O)CC(C)(C)OC3	14	13%	-1%	-13%	0.7	-17	-10%
O=C(CCN1CCc2ccccc2C1)Nc1cccc(F)c1	-18	-11%	2%	21%	1.0	-27	-0.8%
COc1ccccc1N1CCN(c2ccc([N+](=O)[O-])nc2)CC1	4	10%	-1%	-3%	-7.5	-6	0.3%
O=C(CCC(=O)N1CCOc2ccccc21)N1CCCCC1	4	21%	?	4%	-0.6	4	-0.8%
O=C(NCC1CC1)c1cc(-c2ccccc2)nn1CC1CC(c2cccc([N+](=O)[O-])c2)=NO1 (stereo not given)	·	·	?	-18%	·	-12	-1.5%
c1cc2[nH]snc2c2nc(C3CC3)nc12	-8	-2%	25µM*	5%	0.7	2	-27%
Cc1ccc2c(c1)N(CC(=O)NC1CCCCC1C)C(=O)CO2 (stereo not given)	-5	7%	-34%[inhibitor]	4%	-0.9	-21	-1.8%
Cc1ccc(S(=O)(=O)N2CCCOC2)cc1	-8	5%	?	3%	-2.8	-17	-6.9%
COc1ccc(OC)c(S(=O)(=O)NCCc2cn3ccsc3n2)c1	28	17%	-9%	0%	7.5	0	-8.8%
C=CCNC(=S)Nc1nc2c(cc1C(=O)OCC)COC(C)(C)C2	10	-3%	-20%	-7%	1.0	-4	-20%
CCOc1cccc2c1OC1(C)CC2NC(=O)N1c1cccc(C(=O)NCc2ccccn2)c1 (stereo not given)	-29	12%	-7%	3%	·	-8	0.0%
CC/C(CC(=O)C(F)(F)F)=N\NC(=O)/C(C#N)=C/N(C)C	8	10%	12%	6%	3.8	-5	-1.2%
CCC/C(=N\NC(=O)C1CC1)c1ccc(Br)cc1	-8	22%	?	11%	0.6	2	1.9%
(further entries)
SMILES	TRPV1 potentiator	Sfp inh	gsp agonist	gsp antag	Menin-MLL FL inh	D2 PAM	ClpP mod
O=C(COC(=O)C1=COCCO1)Nc1ncc(C(F)(F)F)cc1Cl	0	20%	?	2%	0.4	-2	-0.6%
C/C(=N\NC(=O)c1nn(C)c(C)c1Br)c1cccc(NC(=O)c2ccc(F)cc2)c1	-4	8%	5%	-13%	-15	4	0.7%
O=C1NC(=O)C2(CCCc3ccccc32)N1 (stereo not given)	?	15%	7%	-3%	·	-5	0.7%
COc1cccc(N(C(=O)CNC(=O)c2ccco2)C(C(=O)NC2CCCC2)c2cccnc2)c1 (stereo not given)	22	9%	-1%[15.4 µM]	-7%	-9.1	-1	1.0%
Cc1ccc(C2/C(=C(/O)c3ccc4c(c3)CC(C)O4)C(=O)C(=O)N2CCCn2ccnc2)cc1 (stereo not given)	29	20%	?	0%	·	-8	-2.2%
CC(C)Cn1c(N)c(C(=O)COC(=O)c2c(F)cccc2F)c(=O)n(C)c1=O	0	8%	19%	-42%	0.4	4	1.1%
CCc1ccc(NC(=O)c2cc(C)nn2-c2ccccc2)cc1	?	-5%	-2%[15.4 µM]	-18%	3.4	-9	1.2%&-1.0%
CCCOC(=O)Nc1cc(OC)c(Cl)cc1OC	2	16%	2%	-8%	2.6	-22	-0.7%
CCC(CO)NCCNC(CC)CO (stereo not given)	-9	?	·	1%	1.2&-3.4	-3	0.1%

Screening results as filed in PubChem BioAssay.
